CtBP-E1A blk – blocks the CtBP interaction with E1A. AlphaScreen GST-E1A/His-CtBP binding, 1536-well; active compounds read low; control for the full effect not named in the record. activity change, % (no concentration beside the values). 340,000 compounds, 0.49% hits. AID 651724; in the data active means activity change below about -65%; inconclusive means about -30% to -65%; inactive means above about -30%; further: on the % scale 0 is the no-effect control and ±100 the full control effect
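GST-E1A and His-tagged CtBP (125 nM each as 5X stock) were preincubated with pin-transferred compound for 2 h at 37 °C in the dark, then glutathione donor and nickel acceptor beads were added for 1 h before AlphaScreen reading.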
D2 agonist – agonists of human D2 dopamine receptor (beta-arrestin); AID 624465; 360,000 compounds, 0.084% hits; P14416; DiscoveRx PathHunter D2 beta-arrestin, luminescence, 90 min; 100% = 57 uM dopamine signal; activation, % (concentration not given with the values); in the data active = activation above about 40%; inconclusive = about 15% to 40%; inactive = below about 15%; further: the text of the record calls up to 30% inactive
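Agonist mode: compounds alone added to overnight-plated D2 PathHunter cells for 90 min at 37 C, with 57 uM final dopamine (EC100) defining full response. Beta-arrestin recruitment detected by chemiluminescent reagent, read after 1 h at ambient temperature.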
D2 potentiator – potentiates the human D2 dopamine receptor allosterically. 360,000 compounds, 0.23% hits. DiscoveRx D2 beta-arrestin cells, luminescence, 90 min; 100% = 57 uM dopamine signal. AID 624464. potentiation, % (test concentration not listed); active = potentiation of 50% or more; inconclusive = 30% to 50%; inactive = 30% or less;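 further: compound concentration not given in the record; tested on top of an EC20 dose of dopamine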
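PathHunter beta-arrestin assay in DiscoveRx D2 cells. Compounds were added with an EC20 of dopamine (50 nM final) for 90 min at 37 deg C. Luminescence was read 1 h after detection reagent, with 57 uM dopamine as the EC100 control.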
gsp antag – gsp mutant antagonism; gsp-mutant cells, cAMP HTRF, 30 min; control for the full effect not named in the record; Potency, µM (top dose mostly 76.9 µM), without a hit: top-dose activity change, negative = inhibition, hits mostly inhibitors; 340,000 compounds, 0.4% hits; AID 624288; active = falling curve of any shape with a large fitted effect; inconclusive = falling curve, mostly with a smaller effect; inactive = flat or rising curve; cell line not stated here;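 further: intracellular cAMP measured with PDE inhibitor Ro 20-1724 present during compound exposure; potency means the concentration at half of the fitted maximal effect; on the % scale 0 is the no-effect control and ±100 the full control effect; nearly all actives have a fitted effect of over 65% in size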
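G418-selected cells were plated in DMEM/10% FBS for 16-24 h at 37C, then treated with compounds plus the PDE inhibitor […] (300 uM solution added) for 30 min at 37C. Intracellular cAMP was measured by HTRF after 30 min lysis at room temperature.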
Six1-Eya2 blk – Six1/Eya2 interaction inhibition | Q15475+O00167 | AlphaScreen GST-Six1/His-Eya2 binding, biochemical; active compounds read low; control for the full effect not named in the record | activity change, % (no concentration beside the values) | 360,000 compounds, 0.56% hits | AID 651725; in the data active = activity change below about -65%; inconclusive = about -30% to -65%; inactive = above about -30%; further: on the % scale 0 is the no-effect control and ±100 the full control effect
Target sequence (O00167 whole entry, looked up): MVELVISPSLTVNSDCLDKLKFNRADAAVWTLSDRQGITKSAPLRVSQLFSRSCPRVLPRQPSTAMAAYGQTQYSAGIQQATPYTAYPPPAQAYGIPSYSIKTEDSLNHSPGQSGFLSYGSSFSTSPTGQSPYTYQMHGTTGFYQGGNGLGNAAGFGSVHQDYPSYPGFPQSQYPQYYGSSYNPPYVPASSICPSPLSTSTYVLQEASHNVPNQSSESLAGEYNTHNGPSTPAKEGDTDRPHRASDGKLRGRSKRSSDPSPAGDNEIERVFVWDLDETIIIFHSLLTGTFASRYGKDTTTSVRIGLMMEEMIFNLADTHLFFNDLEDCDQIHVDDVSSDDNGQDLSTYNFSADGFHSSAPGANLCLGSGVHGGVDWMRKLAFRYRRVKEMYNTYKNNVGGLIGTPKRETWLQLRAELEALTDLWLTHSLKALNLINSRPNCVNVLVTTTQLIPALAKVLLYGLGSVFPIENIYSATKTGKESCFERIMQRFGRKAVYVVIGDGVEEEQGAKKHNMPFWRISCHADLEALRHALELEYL
Target sequence (Q15475 whole entry, looked up): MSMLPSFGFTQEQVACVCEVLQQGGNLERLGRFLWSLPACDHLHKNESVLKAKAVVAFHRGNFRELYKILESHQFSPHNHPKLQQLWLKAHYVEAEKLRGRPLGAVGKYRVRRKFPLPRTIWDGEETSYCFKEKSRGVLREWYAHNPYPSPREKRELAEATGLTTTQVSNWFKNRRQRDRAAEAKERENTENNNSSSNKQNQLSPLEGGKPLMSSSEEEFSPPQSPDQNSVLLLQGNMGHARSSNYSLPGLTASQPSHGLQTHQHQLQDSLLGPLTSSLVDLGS
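GST-Six1 + His-Eya2 (5X stock: 250/500 nM); Tris pH 8.0, 300 mM NaCl, 0.05% BSA, 0.02% Tween 20; GSH donor/Ni acceptor beads; 1 h 37 °C dark; AlphaScreen readout.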
gsp agonist – gsp mutant agonism; gsp mutant cells, cAMP HTRF, 30 min; control for the full effect not named in the record; Potency, µM (doses to about 76.9 µM), for inactives: at the top dose activation (cAMP increase), most hits filed as activators; 340,000 compounds, 0.13% hits; active = well fitted activation curve with a large enough effect; inconclusive = small, poorly fitted or top-dose-only effect, or another doubt; inactive = no such curve, though single readings can be large or run the other way; cell line not stated here;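 further: phosphodiesterase inhibitor Ro 20-1724 added with compounds to block cAMP breakdown; potency means the concentration at half of the fitted maximal effect; nearly all actives have a fitted effect of over 60% in size; about a fifth of the inactives were tested at one dose only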
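Cells stably selected in G418 were plated at 2000/well, grown 16-24 hr, then given compounds in DMSO with the PDE inhibitor […] (300 uM solution added) for 30 min at 37C; cAMP was read by HTRF.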
* hit, by the source's call; ? = inconclusive; nt = no result given; [ ] = another dose, or the depositor's remark.

Molecule,D2 agonist,gsp antag,Six1-Eya2 blk,D2 potentiator,gsp agonist,CtBP-E1A blk
C=CCON/C(CCC)=C1\C(=O)CC(C)(C)CC1=NC,7.0,8%,0,-8,0%[15.4 µM],2
O=C(c1ccco1)N1CCN(C(=S)NCc2ccc(F)cc2)CC1,-1.0,-9%,0,0,-4%,7
CCOc1ccc(CNC(=O)CN2C(=O)CSc3ccc(S(=O)(=O)N4CCOCC4)cc32)cc1OC,0.1,3%,2,-1,10%,2
COc1ccc(-c2sc3ccccc3c2-c2ccc(OCCN3CCOCC3)cc2)cc1,1.5,-4%,-5,-1,nt,0
Nc1c(-c2ccccc2)cnc2ncnn12,-3.0,7%,0,-6,-3%,1
Cc1cc(F)ccc1NC(=O)C1CCCO1 (stereo not given),0.0,-5%,-1,2,7%,2
CCCNC(=O)c1cnc(-c2ccccc2)nc1-c1ccccc1,-4.7,-8%,-1,1,-5%,10
CCN1CCN(c2ccc(N3CCN(C(=O)c4ccc(Br)o4)CC3)nn2)CC1,-3.8,-2%,0,-26,-20%,9
CCN(CCNC(=O)C1CCCN(c2ncnc3c2nc2n3CCCCC2)C1)Cc1ccccc1 (stereo not given),-6.3,-1%,7,-18,2%,nt
N#Cc1cc(NC2CCCC2)c([N+](=O)[O-])cc1C#N,?,4%,-14,?,?,24
OC(CNCc1ccc2c(c1)OCO2)COc1ccccc1 (stereo not given),-2.6,0%,6,-18,?,0
CCCN(Cc1nnc(-c2ccccc2Cl)o1)C(=O)c1cc(S(=O)(=O)N2CCOCC2)ccc1F,0.6,-20%,-2,10,3%,-2
O=C(COC(=O)c1c2c(nc3ccccc13)CCCC2)Nc1ccc2c(c1)OCO2,-3.5,0%,?,-9,15%,-20
Cn1cc(C(=O)c2ccccc2)cc1-c1nc2ccccc2n1C,-1.3,?,-16,13,14%,-18
CCOC(=O)C1=CN(Cc2cccc(F)c2)S(=O)(=O)N(CC)C1c1ccc(Br)cc1F (stereo not given),-1.6,1%,-1,-6,nt,7
Cc1cccc(C(=O)OCC(=O)NC(=O)c2ccccc2)c1O,-2.8,8%,3,11,5%[15.4 µM],-18
COc1ccc(C(C(=O)NC2CCCC2)N(Cc2cccs2)C(=O)c2ccn[nH]2)cc1OC (stereo not given),-0.9,-9%,1,3,7%,2
CC12CN3CC(C)(CN(C1)C3c1ccccc1)C2O (stereo not given),-2.3,4%,4,-4,-1%,6
COc1ccc(S(=O)(=O)Nc2cc(Cl)ccc2OC)cc1,0.7,10%,3,0,-42%[inhibitor],-7
COc1ccc2nc(/N=C(\N)NC(=O)N3c4ccccc4Sc4ccccc43)nc(C)c2c1,4.6,5%,-10,26,-2%,-1
COC(=O)c1ccc(NC(=O)c2cn(-c3cccc(C)n3)cn2)cc1,-1.0,1%,13,-4,-17%,0
Cc1oc2ccc(OCc3ccccc3F)cc2c1C(=O)O,1.0,?,2,-4,?,-5
COc1ccccc1NS(=O)(=O)c1ccc(C(=O)OCC(=O)NCc2ccco2)cc1,-1.2,-11%,-11,-14,-33%,-4
COC(C(=O)Nc1ccnn1C1CCN(C(=O)c2ccc(C)cc2)CC1)c1ccccc1 (stereo not given),1.7,-4%,-3,-10,13%,-1
CNc1c2cccc(C)c2nc2c(C(=O)NCCN(C)C)cccc12,-6.3,-20%,?,-24,12%,0

Compound profiles, as listed above.
CC12CN3CC(C)(CN(C1)C3c1ccccc1)C2O (stereo not given) reads D2 agonist = -2.3; gsp antag = 4%; Six1-Eya2 blk = 4; D2 potentiator = -4; gsp agonist = -1%; CtBP-E1A blk = 6
CCCNC(=O)c1cnc(-c2ccccc2)nc1-c1ccccc1 reads D2 agonist = -4.7; gsp antag = -8%; Six1-Eya2 blk = -1; D2 potentiator = 1; gsp agonist = -5%; CtBP-E1A blk = 10

Going on with the list:
Molecule,D2 agonist,gsp antag,Six1-Eya2 blk,D2 potentiator,gsp agonist,CtBP-E1A blk
Cc1ccc(NC(=O)c2cc(=O)[nH]c3ccc(S(=O)(=O)N4CCOCC4)cc23)nc1,2.1,1%,1,-7,17%[15.4 µM],-1
COc1cc(C(=O)NCCOc2ccccc2C)cc(OC)c1OC,-17,8%,-7,-8,13%,-3
O=C1[C@H]2[C@@H](c3ccc(C(F)(F)F)cc3)N[C@]3(CCCN(CC4CCCCC4)C3=O)[C@H]2C(=O)N1Cc1ccccc1,-5.0,nt,26,-5,-17%,0
CCCn1cnc2cc(NCc3cccc(OC)c3O)ccc21,-3.8,-11%,-6,-6,-18%,2
CCN(Cc1ccccc1)c1cc2c(c3c1ccn3C)C1CCC2O1 (stereo not given),-4.3,nt,?,-4,nt,-28
O=C(COC(=O)CCC(=O)c1cccs1)Nc1cccc(F)c1,-1.3,9%,2,4,2%,nt
COC(=O)c1cccc(S(=O)(=O)N2CCCCC2)c1,-3.2,-7%,7,-6,-14%,-1
O=C(CSc1nnc2n(C3CCCCC3)c(=O)c3ccccc3n12)OC1CCCCC1,1.0,-5%,6,0,-5%,12
COc1ccc(S(=O)(=O)N2CCCCC2)cc1NC(=O)c1ccco1,-0.4,6%,-6,6,0%,-4
Cn1c(=O)[nH]c(=O)c2c1nc(N1CCCC1)n2CCCSc1nnnn1-c1ccccc1,-3.9,-3%,-1,-13,-36%,2
COc1ccccc1C(=O)NCC(=O)NNC(=O)c1cccs1,-2.6,8%,-1,-2,-27%,8
Cc1ccc(S(=O)(=O)N(C)CC(=O)OCC(=O)N2CCN(c3ccccc3)CC2)cc1,-2.7,-13%,0,-23,-14%,-5
COc1ccc(S(=O)(=O)N2CCN(C(=O)c3cccnc3)CC2)cc1OC,-3.2,1%,0,-4,-16%,6
Nc1nonc1-n1nnc(C(=O)N/N=C/c2ccncc2)c1-c1cccs1,-0.3,-9%,1,4,?,9
COc1ccc(NC(=O)CSc2nccn2-c2ccccc2)c(OC)c1,-3.8,-4%,-16,0,12%,-3
COc1ccccc1C(=O)Nc1nnc(S(=O)(=O)N2CCOCC2)s1,-1.8,-8%,0,-7,?,1
CCOc1ccc(NC(=O)C2CCN(S(=O)(=O)c3ccc4c(c3)N(C(C)=O)CCO4)CC2)cc1,4.5,-19%,-2,-9,11%,nt
O=C(NCc1nnc(SC/C=C/c2ccccc2)o1)c1ccco1,-5.0,-10%,-8,-4,?,-1
COCCn1c(=NC(=O)CSCC(=O)Nc2cc(C)on2)sc2cc(C(=O)OC)ccc21,2.6,-8%,4,3,-14%,4
CCOC(=O)N1CCN(C(=O)C2CCN(S(=O)(=O)c3ccc(F)cc3)CC2)CC1,-4.8,3%,-1,-1,-2%[15.4 µM],10
COc1ccc(Cl)cc1NC(=O)CN(C)C(=O)c1cn2ccccc2n1,-2.1,-27%,-3,-7,-5%,nt
CS(=O)(=O)Nc1ccc(C(=O)Nc2ccccc2-c2ccccc2)cc1,-2.0,-13%,-8,-1,29%,-7
CC(Oc1ccc2c3c(c(=O)oc2c1)CCC3)C(=O)NCCCn1ccnc1 (stereo not given),1.6,5%,-1,-6,24%,2
CC(C)c1ccc(C(=O)NC2=NCCS2)cc1,-6.6,21%,2,-2,4%[15.4 µM],14
Cc1ccsc1CNC(=O)C1(C)CCCN1CC(C)C (stereo not given),-5.8,nt,11,-8,nt,0
CCCCN(C)CCCNC(=O)Cn1c(=O)sc2ccccc21,-2.4,21%,-1,-21,-40%[inhibitor],3
COc1ccc(CNC(=O)COC(=O)C(CCSC)N2C(=O)c3ccccc3C2=O)cc1 (stereo not given),-4.5,-17%,-5,-12,-3%,-15
COCC(=O)Nc1c(I)c(C(=O)NCC(O)CO)c(I)c(C(=O)N(C)CC(O)CO)c1I (stereo not given),0.4,5%,-7,3,nt,-3
CCOC(=O)c1c(S(=O)(=O)NCC(=O)Nc2ccccc2)c(C)n(C)c1C,-2.0,2%,7,-3,1%,nt
O=C1COc2ccc(C(=O)COC(=O)c3ccccc3[N+](=O)[O-])cc2N1,1.6,-16%,0,-12,15%,1
CC1CN(C(=O)CS(=O)(=O)Cc2ccccc2)CC(C)O1 (stereo not given),-3.1,-4%,-6,-6,?,-1
O=C(O)C1CCC(CNS(=O)(=O)c2ccc(Br)cc2)CC1 (stereo not given),-5.3,1%,-11,-1,?,-6
CCOc1ccc(C2=CSC3=NCCN23)cc1Cl,4.8,9%,-20,-20,-2%[15.4 µM],-5
O=C(NC1CCCC1)C(c1cccnc1)N(Cc1ccccc1)C(=O)c1csnn1 (stereo not given),-2.2,6%,1,-2,-18%,10
CCOC(=O)N1CCN(C(=O)c2ccc(CNS(=O)(=O)c3ccc(OC)cc3)cc2)CC1,1.9,7%,6,-19,-15%,8
COCCCN(CC(=O)O)S(=O)(=O)c1ccccc1,0.1,7%,2,-6,-21%,-23
Cc1ccc(-n2c(SCC(=O)NCc3ccco3)nc3sc4c(c3c2=O)CC(C)(C)SC4)cc1,-1.9,12%,3,-16,15%,6
O=C(COC(=O)c1cc([N+](=O)[O-])ccc1N1CCOCC1)NCc1ccc(F)cc1,-1.8,15%,-10,-6,-12%[15.4 µM],-3
CSc1ccccc1C(=O)N1CCC(CCC(=O)NCc2ccc(F)cc2)CC1,0.9,2%,-1,10,1%[15.4 µM],1
COc1ccc(C(=O)N/N=C(\C)Cn2nc([N+](=O)[O-])cc2C)cc1,-1.1,4%,0,4,-39%[inhibitor],-14
O=C(Nc1ccccc1Cc1ccccc1)c1oc2ccccc2c1COc1ccccc1,-1.6,5%,13,-2,6%,2
CC1CC(Nc2ccccc2)c2ccccc2N1C(=O)c1ccccc1F (stereo not given),-6.2,6%,-2,-1,2%,-12
CN(c1ccccc1)S(=O)(=O)c1cccc(NC(=O)c2ccc(=O)[nH]c2)c1,9.9,7%,-10,-2,7%,-6
O=CNc1ccc2c(c1)Cc1cccc(NC=O)c1-2,-1.3,-27%,-10,-15,6%[15.4 µM],-1
CCOC(=O)c1c(N)sc(C(O)(C(F)(F)F)C(F)(F)F)c1-c1ccccc1,-5.6,18%,2,0,-37%[inhibitor],-1
O=C(CCNS(=O)(=O)c1cccs1)NC1CCN(Cc2ccccc2)CC1,-0.2,5%,4,-12,-7%,7
Cc1ccc(C)c(NC(=O)COC(=O)c2cccc3c2C(=O)c2ccccc2C3=O)c1,?,-21%,-19,54*,-7%,-18
CC(=O)Nc1cc2nc(C)n(Cc3ccc([N+](=O)[O-])cc3)c2nc1C,-1.2,16%,-13,-13,3%[15.4 µM],2
CCOc1ccc(-n2c(=O)c3sccc3n(Cc3cccc([N+](=O)[O-])c3)c2=O)cc1,-1.2,-11%,6,4,22%,nt
COC(=O)c1c(CCl)noc1C(=O)NC(C)C,-1.7,-3%,1,-8,nt,3

Screening data deposited in PubChem BioAssay by National Center for Advancing Translational Sciences (NCATS).
